AF4-AF9 inh = blocks AF4 peptide binding to human AF9; inhibition, % at 10 µM; AID 651704; AlphaScreen, biotin-AF4 peptide binding to FLAG-AF9; 350,000 tested, 0.47% active;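 active = every replicate reaching a set inhibition limit, whatever the replicate mean, cut at about 25% in these data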;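 also: 0% = plate neutral control median and 100% = total signal loss; the record names both 10 and 1 µM as test concentration; the first replicate is given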
Ecoli rRNA inh = selective bacterial rRNA inhibition in E. coli; E. coli WT GFP vs humanized-ribosome RFP mutants, fluorescence, 24 h; active compounds read low; DMSO median 0, no signal -100; GFP signal change (wild-type ribosome), % (no concentration beside the values); 350,000 tested, 1.6% active;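 active = significant combined selectivity score with lowered wild-type GFP, culture density cut under 30%, mutant RFP and density less affected; inactive = any of these conditions unmet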; also: one replicate is shown; some compounds called inactive have numbers as strong as hits
HNF4A DNA FP = change in binding of human HNF4 alpha to DNA; HNF4a-FITC DNA binding, fluorescence polarization, 1 h; 360,000 tested, 0.3% active; activity change, % at 10 µM; AID 1224865; in the data active = activity change above about 30%, passing the limit was not always enough;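 also: controls were the assay level and a saturating level of protein; the project sought stronger binding though the title names inhibitors; some compounds called inactive have numbers as strong as hits; positive values seem to mean higher polarization but the record does not say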
Target sequence (P41235 whole entry, looked up): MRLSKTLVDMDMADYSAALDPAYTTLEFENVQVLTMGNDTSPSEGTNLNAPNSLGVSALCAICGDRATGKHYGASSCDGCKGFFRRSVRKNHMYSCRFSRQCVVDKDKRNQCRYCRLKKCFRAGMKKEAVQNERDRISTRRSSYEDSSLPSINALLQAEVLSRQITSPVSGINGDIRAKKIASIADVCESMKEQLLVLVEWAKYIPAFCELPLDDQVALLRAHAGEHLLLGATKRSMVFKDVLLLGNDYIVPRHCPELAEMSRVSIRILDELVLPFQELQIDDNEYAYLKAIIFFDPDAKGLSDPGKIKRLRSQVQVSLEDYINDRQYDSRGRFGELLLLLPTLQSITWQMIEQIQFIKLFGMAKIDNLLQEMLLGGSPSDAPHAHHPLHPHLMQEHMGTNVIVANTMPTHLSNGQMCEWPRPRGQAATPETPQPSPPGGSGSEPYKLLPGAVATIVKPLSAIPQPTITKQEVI
Vif A3G = HIV-1 Vif–A3G interaction blockers – biochemical, TR-FRET, GST-Vif 1-94, biotin-A3G peptide, dose response retest, primary screen (AID 1117319); 260,000 tested, 0.57% active; inhibition, %, or IC50 in µM where a hit was titrated; TR-FRET GST-Vif / biotin-A3G peptide binding; higher % means a stronger effect; test concentration not given here; strong numbers were not always called active;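 active = above the screen mean plus three standard deviations and confirmed in dose response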;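 also: Vif residues 1-94 fused to GST binding biotinylated APOBEC3G peptide 110-148; 0% = full assay without inhibitor and 100% = GST in place of GST-Vif; retest series ran down from 100 µM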
FGF22 binding = binders of recombinant human FGF22 by thermal shift; SYPRO orange fluorescence; percent of sucrose octasulfate shift, DMSO zero; calls only at 9.99 µM; 340,000 tested, 1.5% active;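 active = melting point raised past a set limit in the mean and every replicate; three in four hits are not shown here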
Target sequence (Q9HCT0 whole entry, looked up): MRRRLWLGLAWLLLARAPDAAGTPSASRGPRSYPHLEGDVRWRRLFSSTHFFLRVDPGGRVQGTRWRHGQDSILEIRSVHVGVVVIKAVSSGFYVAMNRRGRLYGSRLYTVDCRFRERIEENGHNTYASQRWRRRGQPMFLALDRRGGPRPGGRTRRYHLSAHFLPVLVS
E coli growth = E. coli growth inhibition; Escherichia coli growth, OD600, 23 h; active compounds read low; OD600 absorbance (concentration not given with the values); 330,000 tested, 0.21% active;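 active = OD600 absorbance below the run mean of sample wells minus 3.6 SD, in any replicate, cut at about 0.56 in these data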;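 also: stock transfer was 300 nL into about 60 µL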
ALR inh = blocks human ALR sulfhydryl oxidase activity. purified ALR, DTT oxidation, H2O2 HRP-luminol luminescence. 290,000 tested, 3.8% active. inhibition, % (test concentration not listed);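 active = mean and each replicate at 75% or more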;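 also: stock transfer was 7.5 nL into about 7.5 µL; 0% = neutral wells and 100% = wells with inactivated enzyme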
Target sequence (P55789 whole entry, looked up): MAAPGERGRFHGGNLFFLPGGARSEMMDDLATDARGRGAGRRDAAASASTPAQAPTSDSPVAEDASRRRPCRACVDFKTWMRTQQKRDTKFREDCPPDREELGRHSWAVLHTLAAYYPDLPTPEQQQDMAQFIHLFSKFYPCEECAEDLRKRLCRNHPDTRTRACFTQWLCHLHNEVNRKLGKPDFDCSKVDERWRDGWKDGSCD
Ecoli rRNA inh OD600 = recorded beside Ecoli rRNA inh, whose call it bears; OD600 change, %; measured here: OD600 growth;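 optical density of the mix in the first replicate; 0 = DMSO median and -100 = no signal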
Ecoli rRNA inh RFP = recorded beside Ecoli rRNA inh, whose call it bears; RFP signal change, %; measured here: RFP humanized mutant strains;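 first replicate; 0 = DMSO median and -100 = no signal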
The depositor's hits bear a star; i = inactive; nt = no result given. The list is partial (hit frequency here may not be typical).

Second line of a record – AF4-AF9 inh, Ecoli rRNA inh, Ecoli rRNA inh OD600, Ecoli rRNA inh RFP, HNF4A DNA FP, Vif A3G, FGF22 binding, E coli growth, ALR inh
O=C(COC(=O)CCc1ccc(S(=O)(=O)N2CCOCC2)cc1)Nc1ccccc1[N+](=O)[O-]
  4.6, nt, nt, nt, -4.5, 2%, i, 0.7, 6
Cc1cccc(-c2ccc([C@@H]3[C@@H](CO)N4CCCCN(C(=O)c5ccc6c(c5)OCO6)C[C@H]34)cc2)c1
  13, -58, -79, -10.0, nt, nt, i, nt, nt
COC(=O)C[C@@H]1C[C@H]2c3cc(NC(=O)c4cccnc4)ccc3O[C@H]2[C@@H](CO)O1
  -1.1, -5, -9, 6.2, nt, nt, i, nt, nt
CC(C)NC(=O)Nc1ccc2c(c1)C(=O)N([C@@H](C)CO)C[C@H](C)[C@H](CN(C)S(=O)(=O)c1ccccc1)O2
  -3.8, 1, -3, 1.2, nt, nt, i, nt, nt
Cn1ccnc1C(=O)c1cc(SCC(=O)N2CCOCC2)nc2ccccc12
  -1.6, -1, -8, 2.4, -0.7, 30%, i, 0.69, -61
O=S(=O)(Nc1ncccn1)c1ccc(F)cc1
  1.6, 7, 4, -5.3, 0.3, nt, i, 0.66, -9
CCOc1cc(/C=C/C(=O)c2ccc(O)cc2)ccc1OCC(=O)N(C)C
  nt, nt, nt, nt, -2.1, nt, nt, 0.7, -27
CC(=O)N(CC(=O)N(CC(=O)O)c1ccc(Cl)cc1)c1ccc(Cl)cc1
  -2.6, 7, 9, 4.6, -0.2, -2%, i, 0.7, nt
C[C@H]1CN([C@@H](C)CO)C(=O)Cc2cc(NC(=O)c3ccncc3)ccc2O[C@H]1CN(C)C(=O)Nc1ccc(C(F)(F)F)cc1
  -5.6, 2, 1, -2.1, nt, nt, i, nt, nt
Cc1cccc(-c2cc3nc(C)cc(NCCCN(C)C)n3n2)c1
  nt, nt, nt, nt, 0.8, 6%, nt, 0.68, -4
COc1cccc(C(O)Cc2nc3ccccc3n2C)c1OC (stereo not drawn)
  -0.7, nt, nt, nt, 2.2, nt, nt, 0.66, 2
C/C(Cn1nnc([N+](=O)[O-])n1)=N\NC(=O)c1ccc(O)cc1O
  2.4, 0, 8, -2.0, -0.1, 7%, i, nt, -6
CC1(C)Cc2ccccc2C2CC(O)C(=O)N21 (stereo not drawn)
  nt, nt, nt, nt, 35*, 4%, nt, 0.68, -5
c1ccc(-c2csc3ncnc(N4CCc5ccccc5C4)c23)cc1
  0.0, -22, -35, -7.3, 2.5, 1%, i, 0.7, 8
Nc1nc(N)nc(Cc2ccccc2O)n1
  -0.6, -4, -2, -9.3, -0.8, nt, i, 0.65, 30
C[C@@H]1CN([C@H](C)CO)C(=O)c2cc(-c3cccc(C#N)c3)cnc2O[C@@H]1CN(C)Cc1cccnc1
  -4.3, 1, -1, -0.4, nt, nt, i, nt, nt
N=C1C(c2nc3ccccc3s2)=C(O)CN1c1ccccc1
  -0.7, 5, 23, 8.3, 9.1, -12%, i, 0.71, 9
CSCCC(NC(=O)c1ccco1)C(=O)NCc1ccc(F)cc1 (stereo not drawn)
  nt, nt, nt, nt, 0.3, 33%, nt, 0.72, -9
N#Cc1ccc(COC(=O)CSc2nnc(N)s2)cc1
  -6.6, nt, nt, nt, 4.8, -3%, i, 0.68, 97*
CCCCC(=O)Nc1ccc(C(=O)NNC(=O)CCc2ccccc2)cc1
  1.2, 17, 1, -1.6, -1.4, -4%, i, 0.65, 2

Next part (6 carried over from the part before).
Second line of a record – AF4-AF9 inh, Ecoli rRNA inh, Ecoli rRNA inh OD600, Ecoli rRNA inh RFP, HNF4A DNA FP, Vif A3G, FGF22 binding, E coli growth, ALR inh
Nc1nc(N)nc(Cc2ccccc2O)n1
  -0.6, -4, -2, -9.3, -0.8, nt, i, 0.65, 30
C[C@@H]1CN([C@H](C)CO)C(=O)c2cc(-c3cccc(C#N)c3)cnc2O[C@@H]1CN(C)Cc1cccnc1
  -4.3, 1, -1, -0.4, nt, nt, i, nt, nt
N=C1C(c2nc3ccccc3s2)=C(O)CN1c1ccccc1
  -0.7, 5, 23, 8.3, 9.1, -12%, i, 0.71, 9
CSCCC(NC(=O)c1ccco1)C(=O)NCc1ccc(F)cc1 (stereo not drawn)
  nt, nt, nt, nt, 0.3, 33%, nt, 0.72, -9
N#Cc1ccc(COC(=O)CSc2nnc(N)s2)cc1
  -6.6, nt, nt, nt, 4.8, -3%, i, 0.68, 97*
CCCCC(=O)Nc1ccc(C(=O)NNC(=O)CCc2ccccc2)cc1
  1.2, 17, 1, -1.6, -1.4, -4%, i, 0.65, 2
CC1=CC(C)(C)N2C(=O)C3(C(C#N)=C(N)OC4=C3C(=O)CC(C)(C)C4)c3cc(C)cc1c32 (stereo not drawn)
  nt, nt, nt, nt, -3.2, 31%, nt, 0.75, 0
CCCc1cc(=O)[nH]c(SCC(=O)N2CCC(C)CC2)n1
  nt, nt, nt, nt, -2.0, 3%, nt, 0.7, -15
N#C[C@@H]1[C@@H](c2ccc(-c3ccncc3)cc2)[C@@H](CO)N1C(=O)Cc1ccccc1
  -4.4, -4, -2, 2.0, nt, nt, i, nt, nt
COc1ccc(NC(=O)Nc2ccc3c(c2)[C@@H]2C[C@H](CC(=O)NCCc4ccccc4)O[C@H](CO)[C@@H]2O3)cc1
  -4.9, -3, 0, -0.2, nt, nt, i, nt, nt
C[C@@H]1CCCCO[C@@H](CN(C)S(C)(=O)=O)[C@H](C)CN([C@H](C)CO)C(=O)c2cc(N(C)C)ccc2O1
  -2.3, 3, 1, 2.7, nt, nt, i, nt, nt
COc1ccc(CCNC(=O)COC(=O)Cn2cnc3c2c(=O)n(C)c(=O)n3C)cc1
  1.3, 0, 5, -1.3, -1.2, nt, i, 0.7, nt
Cc1ccc(S(=O)(=O)Nc2ccc3c(c2)C(=O)N([C@@H](C)CO)C[C@@H](C)[C@H](CN(C)S(=O)(=O)c2ccc(F)cc2)OCCCC[C@@H](C)O3)cc1
  -2.5, 1, -1, 1.7, nt, nt, i, nt, nt
COCC#Cc1ccc2c(c1)O[C@H](CN(C)C(=O)C1CCCCC1)[C@@H](C)CN([C@@H](C)CO)S2(=O)=O
  -1.0, -5, -11, 1.2, nt, nt, i, nt, nt
O=C(O)c1cc2c(cc1NC(=O)c1c(F)cccc1F)OCCCO2
  1.8, -4, -12, 1.8, 3.0, nt, i, 0.67, nt
CC1CCC(NC(=O)c2cc(S(=O)(=O)N3CCCCC3)c[nH]2)CC1 (stereo not drawn)
  2.3, -11, -22, 3.6, 4.4, nt, i, 0.7, 7
O=C1[C@H]2[C@@H](c3ccccc3)N[C@]3(CCCN(Cc4ccc(F)cc4)C3=O)[C@H]2C(=O)N1Cc1ccccc1
  4.3, -34, -35, -7.1, 2.6, -1%, i, nt, nt
Cc1noc(C)c1NC(=O)N(C)C[C@H]1Oc2ccc(NC(=O)Cc3ccccc3)cc2C(=O)N([C@@H](C)CO)C[C@@H]1C
  -0.9, 2, -3, -3.8, nt, nt, i, nt, nt
CN1C(=O)c2cc(NC(=O)Cc3ccccc3)ccc2OC[C@@H]2O[C@H](CC(=O)NCC3CC3)CC[C@H]21
  -2.5, 1, 2, -1.9, nt, nt, i, nt, nt
CO[C@@H]1CC[C@@H]2CCOc3c(C#N)cccc3C(=O)N(C)C[C@@H](OC)[C@@H](C)C(=O)N(C)C[C@@H]1O2
  1.1, -3, -1, -1.0, nt, nt, i, nt, nt
OC[C@H]1[C@H](c2ccc(-c3ccccc3F)cc2)[C@@H]2CN(Cc3cccnc3)CCCCN12
  1.6, -11, 14, -0.6, nt, nt, i, nt, nt
CN(C)c1cccc(N(C)C)c1CNC(=O)C(C)(C)C
  -0.6, 4, 0, 2.6, 3.2, 3%, i, 0.69, 5
COc1ccc(NC(=O)N(C)C[C@@H]2Oc3ccc(NS(C)(=O)=O)cc3CC(=O)N([C@H](C)CO)C[C@H]2C)cc1
  -2.6, 2, 1, -0.8, nt, nt, i, nt, nt
O=C(Nc1ccccc1)c1ccc(-c2ccccc2)s1
  0.4, -4, 11, -2.3, 1.3, nt, i, 0.64, nt
O=C1CSc2ccc(S(=O)(=O)N3CCN(c4ccccc4)CC3)cc2N1
  -3.2, -3, 1, 8.8, 5.9, 23%, i, 0.74, 8
O=C(COC(=O)c1cc(Cl)nc(Cl)c1)NCCc1ccc(F)cc1
  0.3, 2, 9, -0.4, -2.8, nt, i, 0.68, nt
C[C@@H]1CN([C@@H](C)CO)C(=O)Cc2cc(NC(=O)CCC(F)(F)F)ccc2O[C@H]1CN(C)Cc1ccc(C(=O)O)cc1
  -5.3, -4, -10, -3.0, nt, nt, i, nt, nt
CSc1ccc(S(=O)(=O)N2CCCC2)cc1
  nt, nt, nt, nt, 0.3, 14%, nt, 0.73, -3
O=C(Cc1ccc(Cl)cc1)Nc1ccc(NC(=O)c2ccccc2)cc1
  nt, nt, nt, nt, 5.5, nt, nt, 0.73, 0
COc1cc2cnc(CCO[C@H]3CCCCO3)cc2cc1OC
  0.8, 0, 8, -4.4, -2.2, nt, i, nt, -5
COc1ccc([N+](=O)[O-])cc1NCc1c(F)cccc1F
  -2.2, 23, 14, 0.5, 2.8, -5%, i, nt, nt
COC(=O)C1=C(NC(=O)c2ccc(C)cc2)CCS1
  nt, nt, nt, nt, -0.9, -3%, nt, 0.67, -6
CCOC(=O)c1nc2ccccc2nc1C
  nt, nt, nt, nt, 1.1, -2%, nt, 0.66, -3
O=C(C[C@H]1CC[C@H](NC(=O)c2cccnc2)[C@@H](CO)O1)NCCN1CCCCC1
  -0.7, -1, 1, -0.2, nt, nt, i, nt, nt
CCOC(=O)N1CCC(N(CCCOC)C(=O)Nc2cccc(OC)c2)CC1
  nt, nt, nt, nt, -2.2, 1%, nt, 0.71, -7
COC(=O)c1cccc(NC(=O)Nc2ccccc2OC)c1
  -4.0, -9, -4, 3.7, 3.5, 1%, i, 0.67, -6
O=c1[nH]c(-c2cccnc2)nc2sc(-c3ccccc3)cc12
  -1.9, 21, 31, 0.7, 5.6, -30%, i, 0.71, 3
CCCc1oc(C(=O)O)cc1CN1CCOCC1
  nt, nt, nt, nt, 2.1, 1%, nt, 0.69, -13
CCC(C)(C)NC(=O)C(c1ccncc1)N(Cc1cccs1)C(=O)Cn1nnc2ccccc21 (stereo not drawn)
  nt, nt, nt, nt, 0.0, 10%, nt, 0.77, nt
Cc1ccc(O)c(CC(C)C)n1
  nt, nt, nt, nt, -1.9, -2%, nt, 0.72, -8
Cc1c(C)n(C)c2ccc(C(=O)NCCCN3CCN(C)CC3)cc12
  14, 8, 1, 0.1, 8.9, nt, i, 0.66, 10
